Bioassay records from PubChem.
S aureus helic – blocks Staphylococcus aureus DNA helicase | purified S. aureus helicase, fluorescence unwinding assay; about half of the hits fall short of the stated cut | 120,000 compounds, 0.05% hits | AID 485395 | inhibition, %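 (tested at about 80 µM)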;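 active = both duplicates at 50% or more, or one of them with a favoured structure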;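 also: 0% = mean of negative control wells and 100% = mean of positive control wells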
MgrA DNA FP – S. aureus MgrA-DNA binding modulation | fluorescence polarization | AID 602314 | inhibition, %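 (about 10 µg/mL by stock and volumes)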 | 84,000 compounds, 0.13% hits;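 active = above 50% in either of two replicates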;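 also: 0% = protein plus DNA without compound and 100% = DNA alone without protein; higher means less MgrA bound to DNA so lower polarization; one replicate is shown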
The depositor's hits bear a star; · = not tested or not shown. These rows are one share of the data (hit frequency here may not be typical).

Under each structure: S aureus helic	MgrA DNA FP
- Cc1ccc(-c2nc(N)sc2CC(=O)OCC(=O)N(C)C2CCS(=O)(=O)C2)cc1 (stereo unspecified)
 : -7.0	·
- CN1CCN(/C=C/C(=O)C(F)(F)F)CC1
 : 12.0	·
- Cc1ccc(Cl)cc1N1CCN(CCCNc2ncnc3c2nc2n3CCCCC2)CC1
 : -17.0	·
- CC1CC(C(F)F)n2nc(C(=O)Nc3sc4c(c3C#N)CCC(C(C)(C)C)C4)nc2N1 (stereo unspecified)
 : 3.0	-1.4
- O=C(Nc1ccc(F)cc1F)NC1CC(=O)N(Cc2ccccc2)C1 (stereo unspecified)
 : 12.0	0.4
- CC(C)NS(=O)(=O)c1ccc(N2C(=O)CC3(CCCC3)C2=O)c(Cl)c1
 : ·	-0.1
- Cc1nc2ccc(C(=O)OCc3ccccc3)cc2nc1C
 : 15.0	1.7
- Cc1cnc(C(=O)OCCOc2ccc(Br)cc2)cn1
 : -1.0	·
- Cc1noc(C)c1CSC1=N/C(=C\c2ccco2)C(=O)N1c1ccc(OC(F)F)cc1
 : -12.0	·
- N#Cc1ncc(C(F)(F)F)cc1Oc1ccc(Cl)cc1
 : ·	-2.4
- CC1CCc2onc(C(=O)N3CCCCC3)c2C1 (stereo unspecified)
 : 26.0	·
- Cc1ccc2nc(NCCN3CCOCC3)c3nncn3c2c1
 : 11.0	0.3
- CCOC(=O)N/N=C/c1ccc(F)cc1
 : ·	-1.5
- CCOC(=O)c1cc(C#N)c2ccccn2c1=O
 : ·	-0.7
- CC(=O)Nc1ccc(S(=O)(=O)NCc2ccccn2)cc1
 : 12.0	·
- Cc1occc1C(=O)Nc1ccc(Cl)cc1F
 : 21.0	·
- NS(=O)(=O)c1ccc(S(=O)(=O)NCC(=O)c2ccccc2)cc1
 : 1.0	0.9
- Cc1ccc2c(C)c(CCC(=O)O)c(=O)oc2c1
 : 7.0	·
- Nc1n[nH]c(Cc2nc3ccccc3[nH]2)n1
 : -6.0	1.7
- COc1ccc(C2=NN3C(C2)c2cccc(OC)c2OC3(C)C)cc1 (stereo unspecified)
 : -6.0	-5.2
- O=C1CCNc2ccc(-c3ccccc3)cc21
 : -86.0	·
- CCOC(=O)Cc1c(Cl)c2ccccc2[nH]c1=O
 : 22.0	0.1
- NC(=S)c1ccc(-c2cccs2)s1
 : ·	-0.8
- CSc1nnc(-c2ccccc2)c(-c2ccccc2)n1
 : 4.0	·
- CC(C)(C)c1ccc(C(=O)Nc2ccc(NC(=O)c3cc4ccccc4oc3=O)cc2)cc1
 : ·	-1.0
- OCc1nccn1C(F)F
 : -2.0	·
- C=CCNC(=S)NCCO
 : ·	5.0
- CCc1c(C#N)c(N)nc(SCC(=O)c2ccccc2)c1C#N
 : -6.0	·
- C=CCNc1nc2c(c(=O)n(C)c(=O)n2C)n1Cc1ccc(F)cc1
 : 9.0	·
- Cc1ccccc1CN(C)CC(=O)NC(=O)NC1CCCCC1
 : 0.0	·
- CCCN1C(=O)/C(=c2\sc3n(c2=O)C(c2cccc([N+](=O)[O-])c2)C(C(=O)OCC)=C(C)N=3)c2ccccc21 (stereo unspecified)
 : ·	2.8
- CCNC(=O)CC1C(=O)N(c2ccccc2)C(=O)N1Cc1ccc(OC)cc1 (stereo unspecified)
 : 19.0	-2.4
- CCN1CCN(Cc2ccc3c(c2)Cc2ccccc2-3)CC1
 : 15.0	-0.4
- CCC(NC(=O)c1ccccc1NC(=O)c1ccccc1)C(=O)N1CCCC1 (stereo unspecified)
 : -5.0	-0.1
- Cc1ccccc1Nc1nc(N)nc(COC(=O)Cc2ccc(Cl)cc2)n1
 : 6.0	·
- NS(=O)(=O)c1ccc(NNC(=O)c2c(F)cccc2Cl)cc1
 : 12.0	·
- C(=N\N1CCN(Cc2cccc3ccccc23)CC1)/c1ccncc1
 : 8.0	-2.7
- c1ccc(-n2nc(SCC3COc4ccccc4O3)nc2C2CC2)cc1 (stereo unspecified)
 : -5.0	·
- COc1cc2c(cc1OC)C(c1ccccc1)N(C(=O)CSc1nnc(-c3c[nH]c4ccccc34)o1)CC2 (stereo unspecified)
 : 6.0	·
- CSc1nccc(-c2ccsc2)n1
 : ·	0.6
- NC(N)=Nc1nc2ccccc2o1
 : 8.0	-1.4
- Cc1cccc(C)c1-n1c(SCC(=O)Nc2cccc(C#N)c2)nnc1-c1cccc(S(=O)(=O)N(C)C)c1
 : -3.0	·
- CN(C)C(=O)CSc1nc(-c2ccccc2)nc2c1CCCC2
 : -18.0	·
- CC(NC(=O)Cn1cc(S(=O)(=O)N(C)C)ccc1=O)c1ccc2c(c1)OCCO2 (stereo unspecified)
 : -9.0	·
- Cc1cc(C(=O)CSc2nc(-c3ccccc3)cn2N)c(C)n1Cc1ccc2c(c1)OCO2
 : -3.0	·
- O=C(Nc1ccc(N2CCOCC2)cc1)c1cccnc1
 : 6.0	4.2
- CC(O)c1ccc(C(C)O)cc1 (stereo unspecified)
 : -4.0	2.8
- O=c1[nH]c(Nc2nc3ccccc3o2)nc2ccccc12
 : 0.0	6.0
- CC1CCCCN1CCCNC(=O)c1cc2c(s1)-c1ccc(Cl)cc1SC2 (stereo unspecified)
 : 6.0	-5.2
- CC1(C(=O)NC2CCCC2)CCC(=O)N1CCC1=CCCCC1 (stereo unspecified)
 : 7.0	·
- Cc1cc(=O)[nH]c(SCC(=O)Nc2nnc(CC(C)C)s2)n1
 : 21.0	·
- COc1ccc2cc3c(N)nn(C(=O)C4Cc5ccccc5CN4S(C)(=O)=O)c3nc2c1 (stereo unspecified)
 : -17.0	·
- COc1cc(C(F)(F)F)nc2ccc(C#CCOC(=O)Nc3ccccc3)cc12
 : ·	0.8
- c1ccc(CC2CCN(Cc3ccncc3)CC2)cc1
 : 15.0	0.3
- CCc1ccc(C2N3CC4(CC)CN2CC(CC)(C3)C4=O)cc1 (stereo unspecified)
 : 6.0	·
- Cc1ccc(CCCN)c(C)c1
 : -16.0	·
- Cc1ccc(C(C#N)N2CCOCC2)cc1 (stereo unspecified)
 : -2.0	·
- O=C(CSc1nsc(SCC(=O)Nc2ccc(F)cc2)n1)Nc1ccc(F)cc1
 : 4.0	·
- CC1CCN(S(=O)(=O)c2ccc(C(=O)NC34CC5CC(CC(C5)C3)C4)cc2)CC1
 : 14.0	0.2
- Cc1c(C(=O)NC2CCN(Cc3ccccc3)CC2)cnn1-c1ccc(Cl)cc1
 : ·	-1.8

The results go on.
Compound	S aureus helic	MgrA DNA FP
CC1CCCCC1Nc1ncnc2onc(-c3ccc(F)cc3)c12 (stereo unspecified)	11.0	·
N#Cc1c(C(F)(F)F)cc(C23CC4CC(CC(C4)C2)C3)nc1SCCC(=O)O	18.0	4.5
O=C1CCCC2=C1C(c1cc(Br)ccc1O)C1C(=O)c3ccccc3C1=N2 (stereo unspecified)	27.0	·
COC(=O)c1cccc(NC(=O)Nc2ccccc2)c1	·	0.2
CC(C)CCN(C)C1CCN(C(=O)Nc2ccccc2)CC1	21.0	·
CCOC(=O)C1C(=O)C=C(c2ccc3ccccc3c2)CC1c1ccc(C(F)(F)F)cc1 (stereo unspecified)	·	1.0
CCOC(=O)c1ccc2c(c1)nc(C)n2CC	11.0	·
O=C(Nc1ccccc1)c1cc2ccccc2c(=O)s1	-24.0	·

An excerpt from above in order of their number in MgrA DNA FP, low to high:
Compound	S aureus helic	MgrA DNA FP
COC(=O)c1cccc(NC(=O)Nc2ccccc2)c1	·	0.2
CCOC(=O)C1C(=O)C=C(c2ccc3ccccc3c2)CC1c1ccc(C(F)(F)F)cc1 (stereo unspecified)	·	1.0
N#Cc1c(C(F)(F)F)cc(C23CC4CC(CC(C4)C2)C3)nc1SCCC(=O)O	18.0	4.5

Next section:
Compound	S aureus helic	MgrA DNA FP
O=S(=O)(N=C1SCCS1)c1ccccc1	-12.0	·
CNCc1c(C)nn(-c2ccccc2)c1C	-12.0	·
Clc1ccc(CCN2COc3cc4c(cc3C2)OCO4)cc1	6.0	·
CC1CCCC(C)N1/N=C/c1ccc(C(=O)O)cc1 (stereo unspecified)	2.0	·
O=C(NCCO)c1cc2cc(Cl)ccc2o1	5.0	·
N#C/C(=C\c1cn(CC(=O)N2CCCC2)c2ccccc12)C(=O)NC1CC1	7.0	-0.8
CN(C)CCO/N=C(\c1ccccc1)c1ccncc1	-27.0	·
Cc1ccc2c(c1)NC(CN=C(N)N)CC2 (stereo unspecified)	3.0	-1.3
CCOC(=O)c1cc[nH]c1C	3.0	2.4
N#Cc1c(N(S(=O)(=O)c2ccccc2)S(=O)(=O)c2ccccc2)sc2c1CCCC2	10.0	5.2
COc1ccc(S(=O)(=O)N2CCC(N(C)C(C)C)CC2)cc1	-15.0	·
CCS(=O)(=O)Nc1ccc(Cc2ccncc2)cc1	2.0	2.0
Cn1c(CC(=O)NN)nc2ccccc21	3.0	·
COc1cccc(NC(=O)N2CCC(CN3CCCCCC3)CC2)c1	16.0	·
CCCN1C2CCCC1CC(NC(=O)Nc1ccccc1C(F)(F)F)C2 (stereo unspecified)	19.0	0.0
O=C(NCc1cccs1)c1cc2c(s1)CCCC2	-3.0	·

Single records (already shown):
CCOC(=O)c1cc[nH]c1C across the screens: S aureus helic: 3.0; MgrA DNA FP: 2.4
CCCN1C2CCCC1CC(NC(=O)Nc1ccccc1C(F)(F)F)C2 (stereo unspecified) across the screens: S aureus helic: 19.0; MgrA DNA FP: 0.0
COc1ccc(S(=O)(=O)N2CCC(N(C)C(C)C)CC2)cc1 across the screens: S aureus helic: -15.0; MgrA DNA FP: ·

The list continues.
Compound	S aureus helic	MgrA DNA FP
CC(=O)Nc1cccc(-n2nnc(SCC(=O)c3ccccc3)n2)c1	·	0.2
COc1ccc(-n2nc3c(c2NC(C)=O)CS(=O)C3)cc1 (stereo unspecified)	7.0	-0.2
COc1ccc(C(NC(=O)C(C)C)c2ccc3cccnc3c2O)cc1OC (stereo unspecified)	16.0	·
CC(C)NC(=O)C1CCN(S(C)(=O)=O)CC1	-4.0	1.1
COc1ccc(NC(=O)c2sc(SC)nc2N)cc1	0.0	-2.5
O=C(COC(=O)C1CC2C=CC1C2)NCc1ccc(F)cc1 (stereo unspecified)	-15.0	-1.6
CC(=O)N1CCN(c2nc(-c3ccccc3)c3cc(Cl)ccc3n2)CC1	·	1.1
O=C(COc1ccccc1)Nc1ccccc1Cl	6.0	0.8
CCc1ccc(-n2c(SCC(=O)NCc3ccco3)nc3n[nH]c(C)c3c2=N)cc1	24.0	·
CCc1[nH]nc2c1C1(C(=O)N(CC)c3ccccc31)C(C#N)=C(N)O2 (stereo unspecified)	19.0	-4.3
Cc1cc(C)c2c(CC(=O)NC3CC(C)(C)NC(C)(C)C3)coc2c1	16.0	0.3
O=S(N1CCCCCC1)C12CC3CC(CC(C3)C1)C2 (stereo unspecified)	7.0	·
Cc1ccc(SC(=O)c2cccnc2Oc2ccccc2)cc1	·	0.0
COC(=O)c1c(NC(=O)c2ccc(OC)cc2)sc2c1CCN(C)C2	10.0	·
CC(=O)OC(C(=O)N1CCN(C(c2ccccc2)c2ccccc2)CC1)c1ccccc1 (stereo unspecified)	10.0	0.8
CC1(C)CC(=O)NC=C(c2ccccc2)C1	-8.0	·
COC(=O)c1ccccc1NC(=O)c1cc2c(s1)-c1ccccc1S(=O)(=O)C2	6.0	·
c1csc(-c2csc(Cc3nc(-c4cccs4)cs3)n2)c1	36.0	·
C=CCN1C(=O)/C(=C\c2ccc(O)c(Br)c2)C(=O)NC1=S	7.0	14.2
CCc1ccc(N(CC)C(=O)c2cn(CC)c(=O)c3cc(OC)c(OC)cc23)cc1	14.0	-1.6
Cc1cc2oc(=O)cc(CN(C)c3ccccc3)c2cc1Cl	-5.0	·
O=C(NCc1ccco1)c1ccc2c(c1)C(=O)c1ccccc1-2	3.0	·
CCC(COc1nnnc2ccccc12)NC(=O)Cn1c(=O)cc(C)c2ccccc21 (stereo unspecified)	-29.0	·
CCOC(=O)CSc1nc2c(C)ccc(F)c2cc1C	·	-1.1
O=S1(=O)c2cccc3cccc(c23)N1Cc1cccc(C(F)(F)F)c1	1.0	-0.7
CC(C)Nc1nc(NC(C)C)nc(OCCOC(=O)Nc2ccccc2)n1	5.0	·
CCC(=O)Nc1sc(CC#N)nc1-c1ccc(C)cc1	-11.0	·
CCNC(C)C(=O)Nc1ccc(C)cc1 (stereo unspecified)	1.0	·
C=CCc1ccccc1OCc1nc2ccccc2[nH]1	7.0	-0.1
CCOC(=O)c1sc(NC(=O)c2c(Br)cnn2CC)c(C#N)c1C	0.0	·
O=S(=O)(c1cnc[nH]1)N1CCN(C(c2ccc(F)cc2)c2ccc(F)cc2)CC1	11.0	·
C=CCN(CC=C)C(=O)Cc1ccc(C)cc1	3.0	3.6
CC(=O)N[C@@H](Cc1ccc(OC(C)=O)cc1)C(=O)O	·	-2.5
CC(=O)Oc1ccc2c(-c3ccccc3)cc(=O)oc2c1	16.0	·
Cc1cccc(C)c1NC(=O)CSCC(=O)O	-4.0	-3.1
CCCCOC(=O)C1CCCC(C)N1 (stereo unspecified)	-19.0	·
N#C/C(=C\c1ccc(C(F)(F)F)cc1)c1cccs1	·	1.6
NS(=O)(=O)c1ccc(CCNCC(=O)N2CCc3ccccc32)cc1	0.0	·
CCSC(SCC)[C@H](OC(C)=O)[C@@H](OC(C)=O)[C@@H](OC(C)=O)[C@@H](COC(C)=O)OC(C)=O	·	-0.9
